Mtb betalactam: beta-lactam sensitization of Mtb H37Rv. M. tuberculosis H37Rv growth with meropenem, percent inhibition; hits of this screen are not shown here. inhibition, % at 25 µM. 0.27% of 330,000 active;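 active = about 74% or more and at least 40 points above the plate without the antibiotic, then above 30% in a dose series; inconclusive = first-round hits that could not be retested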;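 note: growth measured after seven days incubation then overnight dye step; 0% = bacteria only wells and 100% = bacteria with antibiotic; twin plates without the antibiotic show which effects depend on it; some results filed as inactive read as strong as hits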
RecA splice inh: blocks M. tuberculosis RecA intein splicing | cell-free RecA intein splicing, fluorescence | inhibition, %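 (about 9 µM by stock and volumes)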 | 0.75% of 290,000 active | AID 2221; in the data active = inhibition above about 30%; inconclusive = no clear call, values can overlap the other calls;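 note: 0% = vehicle wells and 100% = reference inhibitor control wells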
Target sequence (P9WHJ3 whole entry, looked up, canonical isoform): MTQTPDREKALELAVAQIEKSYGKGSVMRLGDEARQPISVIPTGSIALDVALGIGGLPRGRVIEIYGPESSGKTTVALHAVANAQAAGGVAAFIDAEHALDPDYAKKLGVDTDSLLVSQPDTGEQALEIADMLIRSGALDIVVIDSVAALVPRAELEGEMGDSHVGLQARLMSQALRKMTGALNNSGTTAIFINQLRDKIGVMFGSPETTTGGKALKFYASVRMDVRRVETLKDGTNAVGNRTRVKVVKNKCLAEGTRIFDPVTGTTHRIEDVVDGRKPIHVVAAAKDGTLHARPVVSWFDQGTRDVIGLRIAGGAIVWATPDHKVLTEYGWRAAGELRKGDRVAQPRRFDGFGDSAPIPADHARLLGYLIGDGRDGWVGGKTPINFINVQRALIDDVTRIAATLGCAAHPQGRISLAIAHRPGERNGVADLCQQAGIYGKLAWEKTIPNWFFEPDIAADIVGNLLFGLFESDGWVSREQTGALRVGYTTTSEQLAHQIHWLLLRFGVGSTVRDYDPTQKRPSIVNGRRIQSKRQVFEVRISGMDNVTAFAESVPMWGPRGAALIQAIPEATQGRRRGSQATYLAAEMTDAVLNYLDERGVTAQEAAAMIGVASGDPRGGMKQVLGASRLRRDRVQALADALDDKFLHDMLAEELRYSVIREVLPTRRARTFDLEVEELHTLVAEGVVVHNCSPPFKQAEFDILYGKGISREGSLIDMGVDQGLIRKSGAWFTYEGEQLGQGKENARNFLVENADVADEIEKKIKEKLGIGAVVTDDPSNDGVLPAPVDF
Mtb H37Rv: M. tuberculosis H37Rv growth inhibitors, H37Rv strain (AID 1626) | M. tuberculosis H37Rv growth inhibition; higher % means a stronger effect | inhibition, % at 10 µM, or IC50 in µM where a hit was titrated | 0.95% of 220,000 active;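 active = confirmed in a dose series; inconclusive = inhibition above 80% but not taken into the dose series; inactive = below 80% or under 30% at every dose of the series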;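 note: bacteria incubated seven days before Alamar blue readout; 0% = bacteria only wells and 100% = bacteria with antibiotic wells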
Arbovirus anti: arbovirus infection inhibition; 0.37% of 200,000 active; inhibition, % at 10 µM; arbovirus infection cell-based antiviral screen;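 active = inhibition from about 30%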;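 note: bluetongue infection of BSR cells; cell survival read as ATP light after 72 h; 0% = infected wells without compound and 100% = uninfected wells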
YopH PTP inh: YopH (Yersinia) phosphatase inhibition; inhibition, %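 (about 10 µM by stock and volumes)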; 0.16% of 140,000 active; fluorescence Ex485/Em525;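 active = inhibition of 50% or more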;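 note: controls were vehicle for no effect and minimum signal wells for full effect; inactives centre near -20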
The depositor's hits bear a star; ? = inconclusive; / = not tested or not shown. The list is partial; the hit share may differ from the screen's.

canonical_smiles,Mtb betalactam,RecA splice inh,Mtb H37Rv,Arbovirus anti,YopH PTP inh
COCCCNC(=S)Nc1cccc2ncccc12,-15,-1.8,2%,-3,/
O=C1NC(c2ccccc2)=C(c2nc3ccccc3s2)C(c2ccc(O)cc2)N1 (stereo not given),82,11,9%,6,5
Cc1nn(-c2ccccn2)c2c1C(c1ccncc1)C1=C(CC(C)(C)CC1=O)N2 (stereo not given),27,-1.8,1%,6,-11
O=c1[nH]c2ccc(S(=O)(=O)N3CCCCC3)cc2[nH]1,-6,-0.5,0%,3,-36
O=S(=O)(c1ccc2c(c1)OCCO2)N1CCC(c2nc3ccccc3s2)CC1,-15,-0.3,0%,-4,-21
Cn1cnnc1SCC(=O)c1ccc(OC(F)F)cc1,/,-0.7,0%,6,-20
N#Cc1ccc(N2CCN(c3ccc(F)cc3)CC2)cc1,14,-0.1,5%,-8,-3
O=C(c1ccc([N+](=O)[O-])cc1[N+](=O)[O-])n1cnc2ccccc21,5,-4.7,0%,0,/
CN(C)c1ccc(NC(=O)c2ccc(COc3cccc(Cl)c3)o2)cc1,100,18,45%,-30,-2
Cc1ccc2[nH]c3c(N4CCN(Cc5ccccc5)CC4)ncnc3c2c1,98,2.2,3%,-25,-38
CC(C)OC(=O)c1c(-c2ccc(C(C)C)cc2)csc1NC(=O)C1CCCO1 (stereo not given),3,1.5,6%,-24,-7
CCOCCCN1CC(=O)N2[C@@H](Cc3c([nH]c4ccccc34)C2(C)C)C1=O,-2,0.1,/,/,/
O=C(NC1CCCC1)C(c1ccc(N2CCOCC2)cc1)N(Cc1ccco1)C(=O)c1ccco1 (stereo not given),4,2.3,-2%,-3,1
COc1cc(OC)c2cc(C(=O)N[C@@H](Cc3ccccc3)C(=O)O)n(C)c2c1,-2,-2.0,/,/,/
Cc1cccc(N2C(=O)NC(=O)/C(=C/c3ccc([N+](=O)[O-])o3)C2=O)c1,99,/,-9%,-4,-14

Further records:
canonical_smiles,Mtb betalactam,RecA splice inh,Mtb H37Rv,Arbovirus anti,YopH PTP inh
Cc1ccc(S(=O)(=O)N(Cc2c(F)cccc2Cl)C(=O)N2CCN(C)CC2)cc1,-1,2.0,/,/,/
CNC(=S)N(CCc1c(C)[nH]c2ccc(OC)cc12)Cc1cc(OC)c(OC)c(OC)c1,-1,1.3,/,10,-27
CN(CC(=O)Nc1ccc(N2CCOCC2)cc1)C(=O)CSc1ccc(F)cc1,-5,0.0,/,/,/
O=CN1CCN(C(=O)c2ccc(Br)o2)CC1,-3,0.5,/,/,/
CCN(CC)C(=O)CSc1nnc2c3ccccc3n(C)c2n1,-1,-0.7,/,/,/
Cc1cc(C)c(OCCCNC2CCCC2)c(Br)c1,-8,-4.0,/,/,/
CSc1ccccc1NC(=O)c1cc(-c2ccc3c(c2)OCO3)on1,3,-0.5,/,/,/
CC1CCc2sc(C(=O)OC(C)C(=O)Nc3ncc(Cl)cc3Cl)cc2C1 (stereo not given),5,-0.9,4%,-7,-13
CCCCC(CC)C(=O)Nc1ccc(Nc2ccccc2)cc1 (stereo not given),6,4.8,2%,-19,-22
CCCCNC(=S)Nc1ccc(-c2nc3ccc(C)cc3s2)cc1,9,-1.8,73%,-1,-12
CC1Cc2nc(SCC(=O)Nc3ccc(F)cc3F)n(C)c(=O)c2S1 (stereo not given),8,4.4,-5%,7,2
COc1ccc(Cl)cc1S(=O)(=O)Oc1ccc(NC(C)=O)cc1,-10,-2.3,-3%,-8,-16
COC(=O)c1nn(-c2cccc(C)c2)c2nnc(Cc3ccccc3)c(=O)n12,-5,0.1,-1%,2,7
CCOC(=O)C1CCCN(C(=O)c2ccc(S(=O)(=O)NCc3ccco3)cc2)C1 (stereo not given),-11,-1.7,/,/,/
COc1cccc(CCNC(=O)CCc2nnc(-c3ccc4c(c3)OCO4)o2)c1,1,-0.3,/,/,/

Ordered by formula weight (lowest first): some entries from above.
canonical_smiles,Mtb betalactam,RecA splice inh,Mtb H37Rv,Arbovirus anti,YopH PTP inh
COc1ccc(Cl)cc1S(=O)(=O)Oc1ccc(NC(C)=O)cc1,-10,-2.3,-3%,-8,-16
CN(CC(=O)Nc1ccc(N2CCOCC2)cc1)C(=O)CSc1ccc(F)cc1,-5,0.0,/,/,/
CNC(=S)N(CCc1c(C)[nH]c2ccc(OC)cc12)Cc1cc(OC)c(OC)c(OC)c1,-1,1.3,/,10,-27

The main list resumes; the three compounds before the break are reprinted first.
canonical_smiles,Mtb betalactam,RecA splice inh,Mtb H37Rv,Arbovirus anti,YopH PTP inh
COC(=O)c1nn(-c2cccc(C)c2)c2nnc(Cc3ccccc3)c(=O)n12,-5,0.1,-1%,2,7
CCOC(=O)C1CCCN(C(=O)c2ccc(S(=O)(=O)NCc3ccco3)cc2)C1 (stereo not given),-11,-1.7,/,/,/
COc1cccc(CCNC(=O)CCc2nnc(-c3ccc4c(c3)OCO4)o2)c1,1,-0.3,/,/,/
CC1=C/C(=C(\c2ccc(O)c(C)c2)c2ccccc2S(=O)(=O)O)C=CC1=O,5,3.0,/,/,/
CCOc1ccc(OCCOCCN2CCCC2)cc1,-9,0.4,/,/,/
CCCNC(=O)COc1nc2ccccc2nc1N1CCOCC1,1,-1.2,-5%,1,-1
CSc1ncccc1C(=O)OCC(=O)c1ccc(S(=O)(=O)N2CCCCC2)cc1,-6,-0.2,/,/,/
CC(C)NC(=O)CSc1nccc(-c2cccs2)n1,1,-0.3,-4%,/,/
CN(C)S(=O)(=O)Oc1ccsc1C(=O)Nc1ccc(Br)cc1,-7,6.0,11%,-2,/
CCc1ccc(NC(=O)C2CCN(S(C)(=O)=O)CC2)cc1,-4,-1.3,-7%,12,-29
O=C(NCC(=O)N(c1cccnc1)C(C(=O)NC1CCCC1)c1ccco1)c1cccs1 (stereo not given),-7,-1.0,/,1,-8
COc1cc(-c2nnc(Sc3ccc(C(F)(F)F)cc3[N+](=O)[O-])o2)cc(OC)c1OC,/,-0.9,8%,-1,4
O=C(Nc1c(C(=O)N2CCCCC2)cnn1-c1ccccc1)c1ccccc1F,-4,-1.6,/,/,/
CC(NC(=O)C(=O)N1CCCCC1)C(c1cccs1)N1CCN(Cc2ccccc2)CC1 (stereo not given),-6,-0.4,/,/,/
O=[N+]([O-])c1ccc(N2CCN(S(=O)(=O)c3ccc(Cl)cc3)CC2)cc1NCC1CCCO1 (stereo not given),?,-9.2,-1%,14,-3
CN(C)c1ccc(CNC(=O)C2CCN(S(=O)(=O)c3ccc4c(c3)oc(=O)n4C)CC2)cc1,6,-2.3,/,/,/
O=C(O)CCc1ccc(-c2cccs2)n1CC(=O)Nc1ccccc1C(F)(F)F,1,5.7,3%,2,/
COc1ccc(OC)c(Nc2nc(N)c([N+](=O)[O-])c(NCc3ccccc3)n2)c1,1,0.1,/,/,/

The results go on:
canonical_smiles,Mtb betalactam,RecA splice inh,Mtb H37Rv,Arbovirus anti,YopH PTP inh
Cc1cc(N2CCN(c3ccccc3)CC2)n2nnnc2n1,-9,0.7,/,2,-39
Clc1ccc(C2=Nc3cc(Cl)ccc3OC2)cc1,9,-0.4,-4%,5,/
Cc1ccc(S(=O)(=O)NCCSc2nncn2C)cc1,2,-1.2,/,/,/
C=C(C)CN(CC)C(=O)CC1C(=O)NCCN1C (stereo not given),-2,-0.3,0%,1,/
Cc1ccc(/C=N/NC(=O)c2ccc3ccccc3c2)s1,62,2.0,/,/,/
CCCCCCN(C(=O)CCCCCN1C(=O)NC(c2ccc(C3CCCCC3)cc2)C(C(=O)OCc2ccccc2)=C1C)C(C(=O)NCCCC)c1ccc(OCC(=O)OC)c(C(=O)OC)c1 (stereo not given),/,0.1,17%,/,/
CC(=O)c1c(C)n(-c2ccccc2Br)c2ccc(O)cc12,18,-1.7,/,/,/
CCOC(=O)CN1NC2(CCCCCCC2)NC1=S,-8,-2.0,-6%,/,/
CCN1C(=O)N(C)C(N(O)C(=O)NC)C1(C)C (stereo not given),8,-3.7,-4%,3,-9
NC(=S)N/N=C1\CC(n2nnnc2-c2ccccc2Cl)C2COC1O2 (stereo not given),-10,0.0,1%,0,/
COc1ccc(NS(=O)(=O)c2cccc(C(=O)NNC(=O)CNC(=O)c3ccco3)c2)cc1,-4,-0.6,/,/,/
COc1ccc(/C=N/NC(=O)c2sc(C)nc2C)cc1,-3,-7.9,4%,-2,/
O=C(/C=C/c1cccc([N+](=O)[O-])c1)NCc1cccnc1,-3,/,-3%,-5,-22
Cc1cc(C(=O)O)ccc1N/C=C1\CCCC(C)C1=O (stereo not given),0,0.0,4%,3,-13
O=C(C1CCCN(S(=O)(=O)c2cccs2)C1)N1CCN(C2CCCCC2)CC1 (stereo not given),-6,1.4,-4%,-1,-39

The list goes on:
canonical_smiles,Mtb betalactam,RecA splice inh,Mtb H37Rv,Arbovirus anti,YopH PTP inh
CCCCCc1c(O)nc(SCCN2CCOCC2)[nH]c1=O,-2,-3.1,-6%,2,/
C/C(=N\NC(=O)c1cc(-c2cccnc2)nc2ccccc12)c1ccc(O)cc1O,15,11,2%,-34,-29
CC(=O)c1cccc(NC(=O)N2CCN(S(C)(=O)=O)CC2)c1,-5,1.1,-6%,0,-17
COC(=O)c1cnn(-c2ccccc2)c1-n1cccc1C=O,-9,-1.8,-2%,8,/
CCOc1cc2[nH]c(=O)n(CCCCCC(=O)NCc3ccco3)c(=O)c2cc1OCC,-2,2.7,-5%,-10,-14
O=C(CSc1cccc(C(F)(F)F)c1)NC(=O)c1ccccc1,1,0.2,-16%,6,-34
COc1ccccc1C(=O)C1CCCN(Cc2cccc3nccnc23)C1 (stereo not given),24,0.2,2%,-4,/
C=C(C)c1cccc(C(C)(C)NC(=O)NCCCn2ccnc2)c1,3,1.6,-5%,-1,-25
CSc1ccc(CNCC2CCCO2)cc1 (stereo not given),-2,0.0,/,/,/
CN(C)c1ccc([P+](=O)c2ccc(N(C)C)cc2)cc1,-3,0.0,-4%,-3,/
CC1CCCN(c2c([N+](=O)[O-])cc(C(=O)O)cc2[N+](=O)[O-])C1 (stereo not given),-2,/,-6%,15,/
c1ccc(-c2cc3ccccc3nc2N2CCCC2)cc1,71,9.2,-2%,10,-14
CC(C)Oc1ccc(C(=O)OCC(=O)N2CCCc3ccccc32)cc1,2,6.4,/,/,/
O=C(Nc1ccc(C(=O)NC2CCCCC2)cc1)c1cncc(Br)c1,-1,-1.0,0%,-10,/
COCCN1C(=O)N[C@@H](CCc2ccccc2)[C@@H](C(=O)OC)[C@H]1C,0,-0.2,-6%,/,/
O=C(CSc1nnc(-c2cccc(Br)c2)o1)N1CCOCC1,67,-1.4,/,/,/

In the list so far, these contain a CF3 group.
canonical_smiles,Mtb betalactam,RecA splice inh,Mtb H37Rv,Arbovirus anti,YopH PTP inh
COc1cc(-c2nnc(Sc3ccc(C(F)(F)F)cc3[N+](=O)[O-])o2)cc(OC)c1OC,/,-0.9,8%,-1,4
O=C(O)CCc1ccc(-c2cccs2)n1CC(=O)Nc1ccccc1C(F)(F)F,1,5.7,3%,2,/
O=C(CSc1cccc(C(F)(F)F)c1)NC(=O)c1ccccc1,1,0.2,-16%,6,-34

Screening results as filed in PubChem BioAssay.
